# Compound activity (PubChem BioAssay)
# rRNA inh HTS: inhibits bacterial ribosomal RNA function over humanized ribosomes; E. coli WT GFP vs humanized-ribosome RFP mutants, fluorescence, 24 h; active compounds read low; DMSO median 0, no signal -100; GFP signal change (wild-type ribosome), % (concentration not given with the values); 350,000 tested, 1.6% active;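 active means significant combined selectivity score with lowered wild-type GFP, culture density cut under 30%, mutant RFP and density less affected; inactive means any of these conditions unmet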; further: one replicate is shown; some compounds called inactive have numbers as strong as hits
# FGF22 binding: shifts melting point of recombinant human FGF22; Q9HCT0; recombinant FGF22 thermal shift, SYPRO orange fluorescence; percent of sucrose octasulfate shift, DMSO zero; calls only at 9.99 µM; 340,000 tested, 1.5% active; AID 651658;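 active means melting point raised past a set limit in the mean and every replicate; three in four hits are not shown here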
# Target sequence (Q9HCT0 whole entry, looked up): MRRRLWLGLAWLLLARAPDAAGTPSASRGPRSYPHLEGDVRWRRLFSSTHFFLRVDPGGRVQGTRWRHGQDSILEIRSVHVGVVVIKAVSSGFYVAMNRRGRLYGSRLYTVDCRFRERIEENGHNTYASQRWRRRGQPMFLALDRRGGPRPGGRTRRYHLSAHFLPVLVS
# rRNA inh HTS OD600: recorded beside rRNA inh HTS, whose call it bears; OD600 change, %; measured here: OD600 growth;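 optical density of the mix in the first replicate; 0 = DMSO median and -100 = no signal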
# rRNA inh HTS RFP: further read-out of rRNA inh HTS, marked with its call; RFP signal change, %; measured here: RFP humanized mutant strains;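 first replicate; 0 = DMSO median and -100 = no signal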
# Starred values were filed as active, the others as inactive; i = inactive.
rRNA inh HTS OD600,FGF22 binding,rRNA inh HTS RFP,rRNA inh HTS,Compound
-5.6,i,-1.7,3.6,CCCN1C[C@H](C)[C@@H](OC)CN(C)C(=O)c2cc(NS(=O)(=O)c3cn(C)cn3)ccc2OC[C@H]1C
0.4,i,-0.2,2.0,O=C(C[C@H]1CC[C@H](NC(=O)Nc2ccccc2F)[C@H](CO)O1)NCc1ccccc1
15.0,i,1.7,8.1,Nc1nc2c(ncn2[C@@H]2O[C@H](C(=O)NCCCN3CCCC3=O)[C@@H](O)[C@H]2O)c(=O)[nH]1
3.6,i,1.3,4.7,C[C@H]1CN([C@@H](C)CO)C(=O)Cc2cc(NC(=O)Cc3cn(C)c4ccccc34)ccc2O[C@H]1CN(C)Cc1ccc(-c2ccccc2)cc1
7.9,i,1.4,-1.5,O=C(C[C@H]1C[C@H]2c3cc(NC(=O)Nc4ccccc4)ccc3O[C@H]2[C@@H](CO)O1)NC1CCCC1
9.9,i,-1.5,5.2,C[C@@H]1CN([C@H](C)CO)C(=O)c2cc(NC(=O)C3CC3)ccc2O[C@@H]1CN(C)C(=O)Nc1ccccc1
5.1,i,-1.0,5.4,COc1ccc(CN(C)C[C@@H]2Oc3c(NC(=O)Nc4ccc(F)cc4)cccc3C(=O)N([C@H](C)CO)C[C@@H]2C)cc1
-0.9,i,-1.1,1.3,C[C@@H]1CN([C@@H](C)CO)C(=O)c2cc(NC(=O)NC3CCCCC3)ccc2O[C@@H](C)CCCCO[C@H]1CN(C)S(=O)(=O)c1ccccc1
-3.9,i,-7.5,4.4,COc1cccc(NC(=O)N2C[C@@H](O)COC[C@@H]3O[C@H](CC(=O)NC4CCC4)CC[C@H]32)c1
-4.7,i,2.5,-1.1,COc1ccc(S(=O)(=O)N(C)C[C@@H]2Oc3ccc(NS(=O)(=O)c4c(C)noc4C)cc3C(=O)N([C@H](C)CO)C[C@@H]2C)cc1
2.9,i,-0.4,2.9,CNC[C@H]1Oc2c(NC(=O)c3cnccn3)cccc2C(=O)N([C@H](C)CO)C[C@H]1C
-0.4,i,-0.7,1.1,COC(=O)C[C@@H]1C[C@@H]2c3cc(NC(=O)NC4CCCC4)ccc3O[C@@H]2[C@@H](CO)O1
2.0,i,-1.6,1.2,COc1cccc(C(=O)N2C[C@@H]3[C@H](c4ccccc42)[C@@H](CO)N3C(=O)c2ccccc2)c1
-10.1,i,0.8,-0.4,C[C@H](CO)N1C[C@H](C)[C@H](CN(C)Cc2ccc(Cl)c(Cl)c2)Oc2ccc(NC(=O)CCC(F)(F)F)cc2C1=O
-1.7,i,-3.4,0.9,O=C(C[C@H]1CC[C@H]2[C@@H](COC[C@H](O)CN2S(=O)(=O)c2ccc(F)cc2)O1)NCC1CC1
-5.4,i,-3.2,0.6,O=C(C[C@H]1C[C@H]2c3cc(NC(=O)NC4CCCCC4)ccc3O[C@H]2[C@H](CO)O1)NCc1cccnc1
4.4,i,0.0,2.1,COc1ccc(S(=O)(=O)Nc2ccc3c(c2)C(=O)N([C@H](C)CO)C[C@@H](C)[C@H](CN(C)CC2CC2)O3)cc1
9.7,i,-1.1,1.6,C[C@@H](NC(=O)[C@H]1[C@H](CO)[C@H]2Cn3c(cccc3=O)[C@H]2N1Cc1cccnc1)c1ccccc1
-14.7,i,26.4,-0.6,C[C@H]1CN([C@@H](C)CO)S(=O)(=O)c2ccc(C#Cc3ccccc3)cc2O[C@@H]1CN(C)S(C)(=O)=O
0.7,i,-0.7,-3.4,C[C@H](NC(=O)C[C@H]1C[C@@H]2c3cc(NC(=O)c4cccnc4)ccc3O[C@@H]2[C@@H](CO)O1)c1ccccc1
2.7,i,0.3,-3.6,COc1ccc(NC(=O)Nc2ccc3c(c2)C(=O)N([C@@H](C)CO)C[C@H](C)[C@H](CN(C)Cc2ccc(C(=O)O)cc2)OCCCC[C@H](C)O3)cc1
-3.2,i,3.7,-0.7,C[C@@H]1CN([C@H](C)CO)C(=O)c2cc(NC(=O)CCCCCC(=O)Nc3ccccc3N)ccc2O[C@@H](C)CCCCO[C@H]1CN(C)Cc1ccc(Cl)c(Cl)c1
4.6,i,-3.8,3.4,COc1ccc(-c2cn(CC[C@H]3CC[C@@H](NC(=O)CCN4CCCCC4)[C@@H](CO)O3)nn2)cc1
23.1,i,10.0,20.0,COC(=O)C1=C(C)N(C)C(=NCc2ccccc2C(F)(F)F)NC1c1ccc(F)cc1 (stereo not drawn)
-12.3,i,0.5,-1.5,CCCNC(=O)N(C)C[C@H]1Oc2cc(C3=CCCC3)ccc2S(=O)(=O)N([C@@H](C)CO)C[C@H]1C

# Five entries picked at random from those above, as already listed:
rRNA inh HTS OD600,FGF22 binding,rRNA inh HTS RFP,rRNA inh HTS,Compound
-3.9,i,-7.5,4.4,COc1cccc(NC(=O)N2C[C@@H](O)COC[C@@H]3O[C@H](CC(=O)NC4CCC4)CC[C@H]32)c1
4.6,i,-3.8,3.4,COc1ccc(-c2cn(CC[C@H]3CC[C@@H](NC(=O)CCN4CCCCC4)[C@@H](CO)O3)nn2)cc1
-0.9,i,-1.1,1.3,C[C@@H]1CN([C@@H](C)CO)C(=O)c2cc(NC(=O)NC3CCCCC3)ccc2O[C@@H](C)CCCCO[C@H]1CN(C)S(=O)(=O)c1ccccc1
2.7,i,0.3,-3.6,COc1ccc(NC(=O)Nc2ccc3c(c2)C(=O)N([C@@H](C)CO)C[C@H](C)[C@H](CN(C)Cc2ccc(C(=O)O)cc2)OCCCC[C@H](C)O3)cc1
0.4,i,-0.2,2.0,O=C(C[C@H]1CC[C@H](NC(=O)Nc2ccccc2F)[C@H](CO)O1)NCc1ccccc1

# Further records follow.
rRNA inh HTS OD600,FGF22 binding,rRNA inh HTS RFP,rRNA inh HTS,Compound
10.0,i,0.9,2.4,C[C@H](CO)N1C[C@H](C)[C@H](CN(C)C(=O)c2ccncc2)Oc2cc(/C=C/c3ccccc3)ccc2S1(=O)=O
5.6,i,-0.8,0.6,COc1cccc(S(=O)(=O)N[C@H]2CC[C@H](CCN)O[C@@H]2CO)c1
-10.3,i,-4.2,2.4,Cc1ccc(S(=O)(=O)N[C@H]2CC[C@H](CCNC(=O)c3ccc4c(c3)OCO4)O[C@H]2CO)cc1
-11.5,i,-2.5,0.2,COc1ccc(S(=O)(=O)N2C[C@H](O)COC[C@H]3O[C@@H](CC(=O)N[C@H]4CCN(Cc5ccccc5)C4)CC[C@@H]32)cc1
4.9,i,2.0,6.5,CNC[C@H]1Oc2c(NC(=O)c3cnccn3)cccc2C(=O)N([C@@H](C)CO)C[C@H]1C
8.9,i,-0.7,5.6,CCCCCCCCN1C(=O)[C@@H](CC(=O)NCc2cccc(C(F)(F)F)c2)C[C@@]2(C(=O)OC)C1=C[C@H](C(C)(C)C)O[C@@H]2C
1.9,i,1.0,-2.8,O=C(NCC[C@H]1CC[C@H](NS(=O)(=O)c2ccccc2)[C@@H](CO)O1)c1ccccc1F
1.6,i,-1.9,2.2,C[C@H](CO)N1C[C@H](C)[C@@H](CN(C)C(=O)Nc2ccc3c(c2)OCO3)Oc2ncc(C#CC3(O)CCCC3)cc2C1=O
8.2,i,-1.1,0.3,O=C(C[C@@H]1CC[C@@H](NC(=O)C2CC2)[C@H](CO)O1)NC1CCC1
-1.3,i,1.6,0.7,CO[C@@H]1CN(C)C(=O)c2ccc(NC(=O)Cc3ccccc3)cc2OC[C@@H](C)N(CC2CC2)C[C@H]1C
-3.0,i,3.6,-10.9,COCC#Cc1ccc2c(c1)O[C@@H](CN(C)Cc1ccncc1)[C@@H](C)CN([C@H](C)CO)S2(=O)=O
1.9,i,-3.3,0.2,Cc1ccc(-c2cnc3c(c2)C(=O)N([C@@H](C)CO)C[C@H](C)[C@@H](CN(C)Cc2ccccc2C(=O)O)O3)cc1
-10.8,i,1.6,-7.6,CCNC(=O)[C@@H]1[C@@H](CO)[C@@H]2Cn3c(ccc(-c4ccc(F)cc4)c3=O)[C@@H]2N1Cc1ccccc1F
5.5,i,2.4,-6.8,COc1ccc(-c2ccc3c(c2)[C@@H]2[C@@H](CCN2C(=O)NC(C)C)[C@H](CO)N3C)cc1
11.8,i,-2.5,4.3,CC(=O)N1CC[C@@H]2[C@H]1c1cc(-c3cccc(F)c3)ccc1N(C)[C@H]2CO
-2.6,i,-1.3,0.3,CO[C@H]1CN(C)C(=O)c2cc(NC(=O)Nc3ccccc3F)ccc2OC[C@@H](C)N(CC2CC2)C[C@H]1C
7.4,i,2.0,0.3,CCCC(=O)N1C[C@H]2[C@@H](c3ccccc31)[C@@H](CO)N2C(=O)Nc1ccc(F)cc1
2.2,i,-0.6,0.3,Cc1noc(C)c1C(=O)N(C)C[C@H]1OCc2ccccc2-c2ccccc2C(=O)N([C@@H](C)CO)C[C@@H]1C
6.2,i,-1.8,7.0,C[C@H]1CN([C@@H](C)CO)C(=O)c2cc(C#Cc3cccc(F)c3)cnc2O[C@H]1CN(C)C(=O)C1CC1
-0.4,i,3.8,2.6,COc1ccc(C#Cc2cnc3c(c2)C(=O)N([C@H](C)CO)C[C@H](C)[C@H](CN(C)Cc2ccccc2)O3)cc1OC
2.7,i,1.1,1.1,COc1ccc(CN(C)C[C@H]2Oc3ccc(NC(=O)Nc4ccc(F)cc4)cc3CC(=O)N([C@H](C)CO)C[C@@H]2C)cc1
-0.1,i,0.5,-0.9,CNC[C@@H]1Oc2ccc(NC(=O)Nc3c(C)noc3C)cc2C(=O)N([C@H](C)CO)C[C@H]1C
2.2,i,-1.3,4.5,Cc1noc(C)c1S(=O)(=O)Nc1cccc2c1O[C@H](CN(C)C(=O)Nc1ccc(F)cc1)[C@H](C)CN([C@H](C)CO)C2=O
4.1,i,-2.6,-2.6,C/C=C/c1cnc2c(c1)C(=O)N([C@H](C)CO)C[C@H](C)[C@H](CN(C)C(=O)Nc1ccc(F)cc1)O2
-6.6,i,4.9,5.6,Cc1ccc(S(=O)(=O)Nc2ccc3c(c2)C(=O)N([C@@H](C)CO)C[C@@H](C)[C@H](CN(C)Cc2ccc4c(c2)OCO4)OCCCC[C@@H](C)O3)cc1
-2.9,i,-0.5,0.1,COCC(=O)Nc1ccc2c(c1)[C@H]1C[C@@H](CC(=O)NCCc3ccccc3)O[C@@H](CO)[C@H]1O2
3.7,i,10.2,-0.7,CC(C)(C)[S@](=O)N1Cc2cc(C(=O)N3CCCCC3)nc(-c3cccc(-c4cccc(C#N)c4)c3)c2[C@@H]1CCO
2.6,i,-1.4,3.0,C[C@H](CO)N1C[C@H](C)[C@@H](CN(C)C(=O)C2CCC2)Oc2cc(-c3cncnc3)ccc2S1(=O)=O
-1.8,i,-2.3,0.2,CCCN(C)C[C@H]1OCCCC[C@@H](C)Oc2ccc(NS(C)(=O)=O)cc2C(=O)N([C@@H](C)CO)C[C@H]1C
-66.2,i,10.8,-34.1,C[C@H]1CN([C@@H](C)CO)C(=O)c2ccccc2-c2ccccc2CO[C@H]1CN(C)Cc1cccc(F)c1
6.8,i,-0.8,1.1,C[C@H]1CN([C@@H](C)CO)C(=O)Cc2cc(NC(=O)Cc3ccccc3)ccc2O[C@H]1CN(C)C
9.4,i,-0.6,5.5,Cc1noc(C)c1NC(=O)N[C@H]1CC[C@@H](CCNC(=O)C2CCOCC2)O[C@@H]1CO
-8.3,i,-2.4,-5.0,CO[C@H](CN(C)Cc1nccs1)[C@H](C)CN([C@H](C)CO)S(=O)(=O)c1ccc(F)cc1
-4.3,i,-1.6,-8.7,COC(=O)c1cc2c(c3c4cc(OC)ccc4n(S(=O)(=O)c4ccccc4)c13)C(=O)N(C)C2
0.8,i,-5.1,0.2,COC(=O)N(C)C[C@H]1OCc2ccccc2-c2c(n(C)c3ccccc23)C(=O)N([C@H](C)CO)C[C@@H]1C
-1.2,i,-0.5,1.6,Cc1ccc(S(=O)(=O)N[C@@H]2CC[C@H](CCNC(=O)CN3CCOCC3)O[C@@H]2CO)cc1
-0.7,i,-0.6,-4.8,C[C@H]1CN([C@@H](C)CO)C(=O)c2cccc(NC(=O)c3ccc(-c4nccs4)cc3)c2O[C@H]1CN(C)Cc1ccc(Cl)c(Cl)c1
14.9,i,0.8,6.1,C[C@@H]1CN([C@@H](C)CO)S(=O)(=O)c2ccc(C#Cc3ccccc3)cc2O[C@@H]1CN(C)S(=O)(=O)c1ccccc1F
9.3,i,-2.8,3.7,CCCC(=O)Nc1ccc2c(c1)OC[C@H](C)N(C(=O)c1cccnc1)C[C@@H](C)[C@@H](OC)CN(C)C2=O
-10.0,i,2.6,-3.5,CCCN1[C@@H]2Cn3c(ccc(/C=C/c4ccccc4)c3=O)[C@H]1[C@@H](C(=O)NCC1CC1)[C@@H]2CO
-4.4,i,-1.6,-1.2,C[C@H]1CN([C@@H](C)CO)C(=O)Cc2cc(NC(=O)Nc3ccc(C(F)(F)F)cc3)ccc2O[C@@H]1CN(C)S(=O)(=O)c1cn(C)cn1
3.0,i,1.5,4.2,C[C@@H]1CCCCO[C@@H](CN(C)C(=O)Nc2ccc(F)cc2)[C@@H](C)CN([C@H](C)CO)C(=O)c2cc(NC(=O)Nc3ccccc3)ccc2O1
3.1,i,2.5,-1.1,COc1ccc(NC(=O)Nc2cccc3c2O[C@H](CN(C)Cc2ccc(Oc4ccccc4)cc2)[C@@H](C)CN([C@@H](C)CO)C3=O)cc1
18.8,i,5.7,1.5,CN(C)C(=O)c1cccc(-c2ccc([C@@H]3[C@H]4CN(C(=O)C5CCC5)CCCCN4[C@H]3CO)cc2)c1
12.1,i,-3.0,11.3,COc1cccc(-c2ccc3c(c2)O[C@H](CN(C)C)[C@@H](C)CN([C@@H](C)CO)S3(=O)=O)c1

# A portion of the library; rates above refer to the full screens.
